INS promoter inh = inhibitors of insulin promoter-driven GFP, primary screen, imaging, TRM-6 cells (human fetal islet line), eGFP reporter, cell count | AID 1273, 2008 | hit rate 0.9% among 130,000 | inhibition, % at 2 µM | reporter expression induced with tamoxifen;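 active = inhibition above the mean plus 3 SD, with well images judged a real hit on visual review, cut at about 60% in these data, passing the limit was not always enough; inconclusive = inhibition over the cutoff but images rejected on review; inactive = inhibition not above the cutoff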
PKD1 inh = inhibitors of human PKD1 kinase, biochemical, fluorescence polarization; Serine/threonine-protein kinase D1 (Homo sapiens), Q15139; PKD1 kinase fluorescence polarization assay; inhibition, %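 (about 10 µM by stock and volumes)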; hit rate 0.056% among 200,000; AID 797, 2007;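 active = inhibition of 50% or more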;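 note: controls were vehicle for no effect and a reference inhibitor for full effect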
GALR2 agonist = GALR2 receptor agonists, primary screen, cell-based; Galanin receptor type 2 (Homo sapiens), O43603; GALR2-expressing cells, agonist activation read-out; activation, %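 (tested at 5 µM)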; hit rate 0.48% among 140,000;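 active = above mean plus 3 SD of all compounds, about 5% in these data, not always enough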;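 note: 0% = vehicle buffer wells and 100% = reference agonist at full effect; tested in CHO reporter cells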
Target sequence (O43603 whole entry, looked up): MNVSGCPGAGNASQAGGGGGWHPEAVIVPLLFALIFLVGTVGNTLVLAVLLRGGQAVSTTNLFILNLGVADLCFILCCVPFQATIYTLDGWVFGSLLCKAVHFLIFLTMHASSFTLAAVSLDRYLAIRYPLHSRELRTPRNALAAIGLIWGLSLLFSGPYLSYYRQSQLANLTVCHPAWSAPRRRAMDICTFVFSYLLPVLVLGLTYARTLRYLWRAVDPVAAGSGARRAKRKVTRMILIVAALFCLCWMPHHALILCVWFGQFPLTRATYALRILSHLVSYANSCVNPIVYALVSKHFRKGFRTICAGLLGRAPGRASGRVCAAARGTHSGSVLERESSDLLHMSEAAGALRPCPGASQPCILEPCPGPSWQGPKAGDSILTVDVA
HSV replic up = enhancers of HSV replication in host cells, fold increase, host cell viability. HSV replication augmentation in cells. maximum fold increase. hit rate 0.005% among 220,000. AID 1956, 2009;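 active = peak rise of 1.5-fold or more in the series; inconclusive = self-fluorescent or not available for retest; tested in PC3 cells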;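 note: first round at 10 µM; read as green reporter fluorescence; hits show the peak of a series up to 25 µM; 1 = signal of infected wells without compound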
RGS16-Gao = modulators of RGS16 binding to Galphao, primary screen, biochemical, human proteins, multiplexed bead flow cytometry; binding response (% of control), % at 10 µM; hit rate 0.38% among 220,000; Regulator of G-protein signaling 16 (Homo sapiens) + Guanine nucleotide-binding protein …; AID 1441, 2008; bead-based flow cytometry RGS16-Galphao binding, fluorescence; actives lie on both sides;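 active = below 25% or above 175%, edge rows of some plates excepted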;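 note: Galphao activated by GDP with aluminum fluoride before binding; 100% = wells without compound and 0% = beads without RGS; some results beyond the cut were filed as inactive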
Target sequence (O15492 whole entry, looked up): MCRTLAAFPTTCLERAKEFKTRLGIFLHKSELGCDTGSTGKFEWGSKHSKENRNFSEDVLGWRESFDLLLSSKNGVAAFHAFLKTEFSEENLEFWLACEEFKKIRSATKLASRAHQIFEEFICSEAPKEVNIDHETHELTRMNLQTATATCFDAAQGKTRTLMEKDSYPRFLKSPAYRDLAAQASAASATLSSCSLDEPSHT
Target sequence (P09471 whole entry, looked up): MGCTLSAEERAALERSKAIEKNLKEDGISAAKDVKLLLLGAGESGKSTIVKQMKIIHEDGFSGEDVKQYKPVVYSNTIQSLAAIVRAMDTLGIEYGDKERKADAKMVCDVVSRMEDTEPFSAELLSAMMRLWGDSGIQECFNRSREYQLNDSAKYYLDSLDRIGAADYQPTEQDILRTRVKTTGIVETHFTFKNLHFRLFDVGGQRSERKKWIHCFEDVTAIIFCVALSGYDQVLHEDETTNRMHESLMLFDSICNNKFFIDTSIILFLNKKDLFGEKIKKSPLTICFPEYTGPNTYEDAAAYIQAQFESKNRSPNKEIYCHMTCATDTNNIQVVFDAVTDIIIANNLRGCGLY
INS promoter inh cell count = recorded beside INS promoter inh, whose call it bears; normalized cell count, %; measured here: cell count, toxicity; reference of the scale not given here;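 cells exposed to compound for 48 h; stained nuclei by imaging scaled within each plate; lower means fewer cells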
HSV replic up primary fold = recorded beside HSV replic up, whose call it bears; fold increase; compound at 10 µM; measured here: primary screen fold increase 10 uM; tested in PC3 cells;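 GFP signal in the first replicate; 1 = infected wells without compound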
Numbers without * were called inactive; i = inactive; ? = inconclusive; / = no result given.

SMILES	INS promoter inh	INS promoter inh cell count	PKD1 inh	GALR2 agonist	HSV replic up	HSV replic up primary fold	RGS16-Gao
O=C(O)c1c[nH]c2ccc(S(=O)(=O)N3CCN(c4ccc(F)cc4)CC3)cc2c1=O	/	/	-5.3	-1.6	i	0.85	86.2
c1cncc(-c2nnc(SCc3nc4ccccc4[nH]3)o2)c1	32.3	69.0	-8.2	-3.8	i	0.94	99.6
Cc1ccc(OCCCNC2CCCC2)cc1	/	/	-2.0	1.2	i	0.86	103.4
Cc1ccc(CNC(=O)CCNC(=O)Cn2ccc3ccccc3c2=O)cc1	-18.2	118.7	-2.1	0.4	i	0.84	102.6
C/C(CC(=O)Nc1cccnc1)=N\NC(=O)C(=O)NC(C)C	/	/	/	/	i	1.05	88.6
N#CCc1nc(-c2cc3ccccc3oc2=O)cs1	-43.6	151.6	1.7	/	i	0.9	102.6
CCCC1=C(C(=O)OCC)C(c2ccc(OC)c(C)c2OC)C(C#N)=C(N)O1 (centres undefined)	33.3	93.3	-0.1	-0.2	i	0.94	86.8
O=C(/C=C/c1c[nH]c2ccccc12)c1ccccc1	-30.6	94.4	-1.7	0.0	i	1.07	104.2
CCOc1ccc(C(C(=O)NC2CCCCC2)N(C(=O)c2ccccn2)c2cccnc2)cc1 (centres undefined)	5.0	110.9	-0.4	/	i	1.07	98.4
CC(C)C(=O)Nc1nnc(CCN2CCCCC2)s1	-25.0	87.8	-5.1	-0.6	i	0.85	102.8
CCCC1(c2ccccc2)NC(=O)N(CC(=O)c2[nH]c(C)c(C(=O)OCC)c2C)C1=O (centres undefined)	2.8	160.6	6.2	-0.3	i	0.79	108.5
ClCC1CSC(=NC23CC4CC(CC(C4)C2)C3)O1 (centres undefined)	/	/	-2.9	/	i	1.07	109.5
COc1ccc(C(NC(=O)c2ccc(-c3ccccc3)cc2)c2ccccc2)cc1 (centres undefined)	10.0	157.5	-6.9	-1.3	/	/	96.6
CCOc1ccc(NC(=O)c2cc(Cl)nc3ccccc23)cc1	/	/	/	/	i	0.81	96.0
C=CCNCCCCOc1ccc(OCc2ccccc2)cc1	/	/	-12.4	/	i	0.84	102.8
CCOC(=O)N1CCC(c2cc(=O)n3[nH]ccc3n2)CC1	/	/	-3.6	0.0	i	0.93	85.8
O=C(NCCCC(=O)N1CCOCC1)c1cccnc1	14.3	122.1	8.1	-1.9	i	1.01	102.5
COc1ccc(N2CCN(c3nc(NCCc4ccc(OC)c(OC)c4)nc(OC)n3)CC2)cc1	18.8	125.6	-2.7	-0.4	i	0.84	103.8
O=C(Nc1ccccc1)C(Cc1cccs1)c1nn[nH]n1 (centres undefined)	-57.1	114.1	0.0	0.6	i	1.07	63.8
O=C(CN1C(=O)C2C3CCC(C3)C2C1=O)OCC(=O)c1cccc([N+](=O)[O-])c1 (centres undefined)	3.3	119.1	-5.0	-0.3	i	1.07	90.0

The list goes on (5 carried over from the part before).
SMILES	INS promoter inh	INS promoter inh cell count	PKD1 inh	GALR2 agonist	HSV replic up	HSV replic up primary fold	RGS16-Gao
CCOC(=O)N1CCC(c2cc(=O)n3[nH]ccc3n2)CC1	/	/	-3.6	0.0	i	0.93	85.8
O=C(NCCCC(=O)N1CCOCC1)c1cccnc1	14.3	122.1	8.1	-1.9	i	1.01	102.5
COc1ccc(N2CCN(c3nc(NCCc4ccc(OC)c(OC)c4)nc(OC)n3)CC2)cc1	18.8	125.6	-2.7	-0.4	i	0.84	103.8
O=C(Nc1ccccc1)C(Cc1cccs1)c1nn[nH]n1 (centres undefined)	-57.1	114.1	0.0	0.6	i	1.07	63.8
O=C(CN1C(=O)C2C3CCC(C3)C2C1=O)OCC(=O)c1cccc([N+](=O)[O-])c1 (centres undefined)	3.3	119.1	-5.0	-0.3	i	1.07	90.0
CCOC(=O)C1CCN(C(=O)c2cnn3c(C)cc(C)nc23)CC1	19.2	102.6	-9.0	-2.1	i	0.98	96.0
CCNc1nc2nonc2nc1NCC	/	/	-3.5	0.3	i	1.01	96.5
O=C1CC(C(=O)Nc2ccc(C(=O)O)cc2)C(c2ccccc2)O1 (centres undefined)	-24.4	70.3	-13.1	-2.4	i	0.91	104.1
Cn1ccnc1SCc1ccc([N+](=O)[O-])cc1	9.7	48.4	-14.0	-0.6	i	0.85	107.8
O=C(CSc1nc2ccccc2n1CC(=O)N1CCCC1)Nc1nccs1	14.8	108.7	-4.5	-0.9	i	1.04	102.7
COc1ccc(S(=O)(=O)NCCC(=O)NCc2cccs2)cc1	-100.0	105.2	13.7	-3.2	i	0.96	101.5
Cc1c(NC(=O)c2cc3ccccc3oc2=O)c(=O)n(-c2ccccc2)n1C	-4.3	47.5	-6.7	-2.2	i	1.06	97.3
COc1ccccc1-c1c(C(F)(F)F)oc2cc(OC(=O)c3cccc([N+](=O)[O-])c3C)ccc2c1=O	13.3	161.7	11.9	-1.7	i	1.07	78.2
COc1ccc2c(c1OC)C(C1c3c(cc4c(c3OC)OCO4)CCN1C)OC2=O (centres undefined)	-90.5	89.3	-4.6	-1.5	i	1	122.1
C=CCn1c(SCc2ccccc2C#N)nnc1-c1ccccc1O	/	/	-11.1	-2.6	i	0.76	111.8
CC(=O)Nc1nc(C)c(Cc2ccccc2)c(=O)[nH]1	23.1	100.8	-2.9	-1.3	i	1.03	91.9
CCn1c(=O)cc(SCC(=O)N2CCN(C(=O)c3ccco3)CC2)c2ccccc21	-175.0	46.6	-16.6	-1.9	i	1.01	100.3
CCN(CC)C(=O)CSc1ncnc2c(-c3ccc(OC)cc3)nsc12	-7.3	217.3	-4.9	/	i	1.01	109.6
Cc1ccc(C)c(NC(=O)C(C)CC2COCCO2)c1 (centres undefined)	/	/	2.4	-3.7	i	1	93.4
CC(=O)Nc1ccc(SC[C@H](Cc2ccccc2)N2CCN(CCc3ccccc3)CCC2=O)cc1	/	/	/	/	i	0.775	102.3
CCCCCn1c(S(=O)(=O)O)nc2ccccc21	/	/	-1.3	-2.7	i	1	105.2
CCC(CC)C(=O)NCc1ccccc1Cl	15.8	73.1	-5.6	-0.8	i	1.18	26.0
COc1ccc(-n2nc(C(=O)NCC(=O)Nc3ccccn3)c3ccccc3c2=O)cc1	9.1	78.8	4.3	-0.2	i	0.9	87.7
OC(CN1CCN(Cc2ccccc2)CC1)Cn1c2ccccc2c2ccccc21 (centres undefined)	-78.6	160.9	-3.3	0.7	i	0.79	108.0
CN(C)c1ccc(/C=N/NC(=O)c2cccc(N3CCCC3=O)c2)cc1	-33.3	102.4	-1.9	/	i	0.89	106.9

In a second layout: 3 of the compounds above.
| mol | INS promoter inh | INS promoter inh cell count | PKD1 inh | GALR2 agonist | HSV replic up | HSV replic up primary fold | RGS16-Gao |
| --- | --- | --- | --- | --- | --- | --- | --- |
| CCCCCn1c(S(=O)(=O)O)nc2ccccc21 | / | / | -1.3 | -2.7 | i | 1 | 105.2 |
| OC(CN1CCN(Cc2ccccc2)CC1)Cn1c2ccccc2c2ccccc21 (centres undefined) | -78.6 | 160.9 | -3.3 | 0.7 | i | 0.79 | 108.0 |
| O=C1CC(C(=O)Nc2ccc(C(=O)O)cc2)C(c2ccccc2)O1 (centres undefined) | -24.4 | 70.3 | -13.1 | -2.4 | i | 0.91 | 104.1 |

Other entries follow.
SMILES	INS promoter inh	INS promoter inh cell count	PKD1 inh	GALR2 agonist	HSV replic up	HSV replic up primary fold	RGS16-Gao
Cc1c(Cl)cccc1NS(=O)(=O)c1ccc2c(c1)C1C=CCC1C(c1ccc(C(=O)O)cc1)N2 (centres undefined)	/	/	-0.1	/	i	1.16	99.3
O=C(OCC(=O)N1CCCc2ccccc21)c1cnc(Cl)c(Cl)c1	/	/	-13.6	-1.0	i	0.99	102.6
CN(C)CCNC(=O)Cc1ccc([N+](=O)[O-])cc1	-16.7	122.9	1.9	0.1	i	1.03	107.4
CC(=O)c1cnc2nc(C)nn2c1C	/	/	-2.3	-1.6	i	0.89	105.4
CCOc1ccccc1Nc1nnc(SCC(=O)Nc2cc(C)on2)s1	/	/	-0.3	-1.7	i	0.94	102.2
CCOc1ccc(S(=O)(=O)NCCCN2CCOCC2)c2ccccc12	-15.4	78.4	-1.1	0.9	i	0.94	104.5
CC(=O)Nc1ccc(S(=O)(=O)N(C)S(=O)(=O)c2ccc(F)cc2)cc1	/	/	1.5	-0.3	i	0.87	94.1
CC(=O)c1c(C)[nH]c(C(=O)Nc2nc(C)cs2)c1C	18.2	140.0	-2.3	/	i	0.9	114.5
COc1cc(C(=O)Nc2cc(C(F)(F)F)ccc2Cl)cc(OC)c1OC	/	/	2.8	-3.9	/	/	101.8
COc1ccc(Cl)cc1NC(=O)CSc1ncnc2c1oc1ccccc12	-33.3	131.2	-14.2	-1.5	i	0.9	98.5
O=C(O)Cc1sc(N/N=C\c2ccncc2)nc1-c1ccccc1	/	/	/	/	?	/	98.8
NCCCC[C@H]1CNC(=S)N1CCc1cc(C(F)(F)F)cc(C(F)(F)F)c1	/	/	1.5	/	i	0.95	96.5
CC(=O)c1ccc([C@H]2C[C@@]34CN(C(=O)OC(C)(C)C)S(=O)(=O)[C@H]3C[C@H]2O4)cc1	/	/	/	/	i	1.22	109.7
N=c1c2c(n(Cc3ccc([N+](=O)[O-])cc3)c3c1CCC3)CCCC2	25.6	96.9	6.4	/	i	0.93	100.2
O=C(COC(=O)c1ccccc1C(=O)c1ccc(Cl)cc1)NC(c1ccccc1)c1ccccc1	/	/	-0.8	-0.1	i	1.19	58.7
O=C(c1cc([N+](=O)[O-])ccc1Cl)N1CCN(c2ccc([N+](=O)[O-])cc2)CC1	48.0	135.8	3.1	-0.7	i	0.91	99.4
COc1ccc(C(=O)N/N=C/c2ccc3cccc(OCc4ccccc4)c3n2)cc1	/	/	-3.4	0.4	i	0.68	104.9
NC(=O)CSc1nnc(-c2cc3ccccc3o2)n1Cc1ccccc1	-45.8	110.5	-3.1	-2.2	i	0.97	100.6
Cc1cc(C)nc(N2CCCC(C(=O)NCCc3ccc(F)cc3)C2)n1 (centres undefined)	85.7*	67.5*	-15.1	-0.1	i	1.12	103.4
Cc1ccc2c(C)c(C(=O)NCc3ccc(S(N)(=O)=O)cc3)oc2c1	/	/	-2.4	/	i	1.03	99.4
CCOC(=O)C(C)Sc1nnc(Cc2cc(=O)[nH]c(=O)[nH]2)n1-c1cccc(OC)c1 (centres undefined)	/	/	5.0	-1.2	i	0.85	107.0
CNc1ccc(C(O)(C(F)(F)F)C(F)(F)F)cc1C(O)(C(F)(F)F)C(F)(F)F	-92.3	101.6	-2.9	-2.5	i	0.9	101.7
C#CCOCCOCCOCCNc1nc(N2CCN(C(=O)[C@H](CCCCN)n3cc(CCCC)nn3)CC2)nc(N2CCN(C(=O)[C@H](CCCCN)n3cc(CCCC)nn3)CC2)n1	-5.0	121.3	-0.3	-0.6	i	0.97	102.5
COc1ccc(NC(=O)CCNC(=O)Cn2cnc3ccccc3c2=O)c(OC)c1	/	/	2.4	-2.3	i	1.04	107.4
Cn1ncc2c(=O)n(CC(=O)NC34CC5CC(CC(C5)C3)C4)cnc21	5.5	93.0	-7.3	-0.7	i	0.92	104.3
CCOc1ccc(-n2c3nc4ccccc4nc3c3c(=O)n(Cc4ccco4)cnc32)cc1	24.0	87.9	-3.8	-0.4	/	/	/
Cc1cccc(NCC(=O)N/N=C\c2cccn2C)c1	/	/	/	/	i	0.77	100.1
Cc1ccc(OCc2nnc(NC(=O)c3ccco3)s2)c(C)c1	/	/	1.2	-3.0	i	0.69	121.4
Oc1ccc(C(=S)N2CCCCC2)cc1	-48.4	100.0	1.5	-0.9	i	1.06	113.5
O=C(Nc1cccnc1N1CCOCC1)c1cccs1	/	/	/	/	i	0.93	101.1
CCOC(=O)C1(CC2CC2)CCN(Cc2cnc(N(C)C)s2)CC1	/	/	-10.6	/	i	0.97	101.4
CC(=O)c1ccc(NCC2COc3ccccc3O2)c([N+](=O)[O-])c1 (centres undefined)	/	/	-8.3	/	i	0.89	100.1
Cc1cccc(-n2c(CNC(=O)Cc3ccccc3)n[nH]c2=S)c1	/	/	-7.5	/	i	0.91	107.6
COc1cccc(OC)c1C(=O)NC(=S)N1CCN(c2ccc(C(F)(F)F)cc2[N+](=O)[O-])CC1	29.0	65.2	-12.1	-1.4	i	0.91	99.2
CCOc1ccc(-c2[nH]ncc2Oc2ccccc2OCC)c(O)c1	-107.7	50.7	0.0	0.8	i	0.86	103.1
CCOC(=O)/C(C#N)=N/Nc1c(C)n(C)n(-c2ccccc2)c1=O	42.9	132.9	-4.1	/	i	1.08	101.2

Compound activity deposited in PubChem BioAssay by several laboratories.
